ClpP mod: qHTS Assay for Activators of ClpP; ATP-dependent Clp protease proteolytic subunit (Bacillus subtilis (strain 168)), P80244; purified B. subtilis ClpP, FRET peptide cleavage, 20 min; Potency, µM (series often up to 57.5 µM), for inactives: at the highest dose activity change, negative = active; hit rate 1.9% among 340,000; AID 651965, 2013; active = well fitted falling curve with a large enough effect; inconclusive = small, poorly fitted or top-dose-only effect; inactive = no such curve, though single readings can be large or run the other way; also: potency is read from the fitted curve at half-maximal effect; the source files actives as falling curves though it sought activators and does not explain the sign; nearly all actives have a fitted effect of over 65% in size; many hits overshoot -100%
Target sequence (P80244 whole entry, looked up): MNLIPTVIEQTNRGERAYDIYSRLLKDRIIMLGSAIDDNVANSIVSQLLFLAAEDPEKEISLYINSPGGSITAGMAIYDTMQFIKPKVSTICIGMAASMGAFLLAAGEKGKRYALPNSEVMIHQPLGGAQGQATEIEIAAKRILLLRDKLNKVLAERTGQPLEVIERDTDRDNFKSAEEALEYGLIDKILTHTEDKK
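ClpP 10 microg/mL final, pH 8 Tris/KCl buffer with BSA, glycerol, Tween-20; compound pinned in; FRET-FV substrate; RT 20 min; Ex320/Em430; ΔFRET vs ADEP 5.8 microM, DMSO, no enzyme.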
gsp agonist: activates gsp, the McCune-Albright syndrome mutation | hit rate 0.13% among 340,000 | gsp mutant cells, cAMP HTRF, 30 min; control for the full effect not named in the record | Potency, µM (highest dose often 76.9 µM), without a hit: at the top dose activation (cAMP increase), usual class: activators; active = well fitted activation curve with a large enough effect; inconclusive = small, poorly fitted or top-dose-only effect, or another doubt; inactive = no such curve, though single readings can be large or run the other way; cell line not stated here;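 also: phosphodiesterase inhibitor Ro 20-1724 added with compounds to block cAMP breakdown; potency is read from the fitted curve at half-maximal effect; nearly all actives have a fitted effect of over 60% in size; about a fifth of the inactives were tested at one dose only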
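Cells stably selected in G418 were plated at 2000/well, grown 16-24 hr, then given compounds in DMSO with the PDE inhibitor […] (300 uM solution added) for 30 min at 37C; cAMP was read by HTRF.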
D2 potentiator: positive allosteric modulators of human D2 dopamine receptor; P14416; DiscoveRx D2 beta-arrestin cells, luminescence, 90 min; 100% = 57 uM dopamine signal; potentiation, % (no concentration beside the values); hit rate 0.23% among 360,000; AID 624464; active = potentiation of 50% or more; inconclusive = 30% to 50%; inactive = 30% or less;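 also: compound concentration not given in the record; tested on top of an EC20 dose of dopamine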
Target sequence (P14416 whole entry, looked up): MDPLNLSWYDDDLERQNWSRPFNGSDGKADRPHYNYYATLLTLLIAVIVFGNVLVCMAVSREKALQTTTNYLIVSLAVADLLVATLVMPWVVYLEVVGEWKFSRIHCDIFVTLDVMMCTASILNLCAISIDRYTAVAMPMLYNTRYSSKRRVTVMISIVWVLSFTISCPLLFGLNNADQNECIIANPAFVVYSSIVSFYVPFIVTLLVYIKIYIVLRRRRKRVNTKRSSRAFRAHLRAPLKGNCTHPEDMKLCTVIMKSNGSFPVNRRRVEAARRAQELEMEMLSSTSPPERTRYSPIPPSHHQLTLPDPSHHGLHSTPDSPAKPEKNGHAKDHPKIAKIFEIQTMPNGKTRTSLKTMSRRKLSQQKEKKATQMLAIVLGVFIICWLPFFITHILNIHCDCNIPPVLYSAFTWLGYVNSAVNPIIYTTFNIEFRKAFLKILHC
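PathHunter beta-arrestin assay in DiscoveRx D2 cells. Compounds were added with an EC20 of dopamine (50 nM final) for 90 min at 37 deg C. Luminescence was read 1 h after detection reagent, with 57 uM dopamine as the EC100 control.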
Menin MLL FP FL: menin-MLL binding inhibition, fluorescein peptide. Fluorescence polarization, fluorescein-MLL peptide displacement from menin. FP activity change, % at 61.4 µM. 290,000 tested, under 10 active; inconclusive = falling polarisation curve, or a change in total fluorescence; inactive = total fluorescence flat and polarisation flat or rising; no compound was filed as active; the % refers to the polarisation; negative = inhibition;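 also: % of control where 0% means no effect; inhibitors lower the polarisation; unlabelled MLL peptide was the positive control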
gsp antagonist: antagonists of gsp mutant (McCune-Albright syndrome); hit rate 0.4% among 340,000; gsp-mutant cells, cAMP HTRF, 30 min; control for the full effect not named in the record; Potency, µM (top dose mostly 76.9 µM), inactives show at the top dose activity change, negative = inhibition, most hits filed as inhibitors; AID 624288; active = falling curve of any shape with a large fitted effect; inconclusive = falling curve, mostly with a smaller effect; inactive = flat or rising curve; cell line not stated here;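 also: intracellular cAMP measured with PDE inhibitor Ro 20-1724 present during compound exposure; potency is read from the fitted curve at half-maximal effect; % is scaled to controls: 0 for no effect and ±100 for the full control effect; nearly all actives have a fitted effect of over 65% in size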
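Measurement of cellular cAMP by homogeneous time-resolved fluorescence following a 30 min compound exposure at 37C. The PDE inhibitor […] was present throughout; the assay buffer was DPBS with 0.05% BSA and 0.005% Tween 20.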
Sfp inh: inhibitors of Bacillus subtilis Sfp phosphopantetheinyl transferase. hit rate 3.5% among 310,000. Q9F4F7. Biochemical Sfp PPTase activity, qHTS. Potency, µM, inactives show max response, negative = inhibition, hits mostly inhibitors; active = well fitted inhibition curve with a large enough effect; inconclusive = small, poorly fitted or top-dose-only effect, or another doubt; inactive = no such curve, though single readings can be large or run the other way;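 also: the enzyme is Sfp with the accession as filed and its product quenches rhodamine fluorescence; potency is read from the fitted curve at half-maximal effect; 0% = enzyme reaction without inhibitor and -100% = no enzyme wells; top concentration of the series not given in the record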
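Reaction rates are the 30-min fluorescence difference (ex 525, em 598 nm) in wells containing 15 nM Sfp, 5 uM rhodamine-CoA and 12.5 uM BHQ-2-YbbR at pH 7.6 with 10 mM MgCl2.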
TRPV1 potentiator: human TRPV1 potentiation; Q8NER1; TRPV1-expressing cells, Fluo-8 calcium influx, capsaicin EC20 potentiation; host cell line not named in the record; control for the full effect not named in the record; potentiation, % at 8.33 µM; hit rate 0.02% among 320,000; AID 540277; active means potentiation above 80%; inconclusive means 30% to 80%; inactive means below 30%; also: 0% is about no effect
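Fluo-8 calcium influx in TRPV1-expressing cells, kinetic read (ex 480/em 520 nm). Compound added and read 3 min for agonist activity, followed by capsaicin at EC20 final and 2 min further read for enhancement.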
An asterisk follows results filed as active; ? = inconclusive; . = no result given; & = joins results of further samples; [ ] = another dose, or the depositor's remark. Not a hit list, and some 5.1% of all compounds hit somewhere here.

SMILES | ClpP mod | gsp agonist | D2 potentiator | Menin MLL FP FL | gsp antagonist | Sfp inh | TRPV1 potentiator
CC1CCN(C(=O)CCNC(=O)Cn2cnc3sc4c(c3c2=O)CCCC4)CC1 | -2.2% | ? | -12.8 | 2.1 | 14.7% | 12.7% | 1.5
CCN(CC)S(=O)(=O)c1ccc(N2CCCC2)c(NC(=O)Cc2cc(OC)c(OC)c(OC)c2)c1 | . | -9.5%[15.4 µM] | 0.8 | . | 7.0% | 1.9% | 13.3
COc1cccc(CSc2nc3ccccc3cc2C=O)c1 | -1.9% | -9.3% | 10.3 | -1.0 | 2.7%[15.4 µM] | -9.4% | 0.6
Cc1nnc(SC(C)C(=O)Nc2nccs2)s1 (stereo not given) | -0.2% | ? | -9.2 | -3.7 | 18.3% | 8.8% | -11.6
Cn1c(=N)n(CC(=O)c2ccccc2)c2ccccc21 | . | 24.9% | -5.3 | 1.6 | -0.1% | 25.2% | -0.2
C/C(=N\NC(=O)c1ccccc1F)c1ccc(C#N)cc1 | -0.9% | -9.2% | -4.5 | -0.9 | -2.9% | -0.8% | -1.2
O=C1CC(c2ccccc2)CC(O)=C1C=Nc1cccc(Cl)c1 (stereo not given) | . | -3.4% | -4.3 | 5.0 | 3.3% | ? | -1.4
Cc1ccc(Cc2c(C)nc3nc(SCC(=O)NCCCN4CCOCC4)nn3c2C)cc1 | . | ? | -1.5 | 0.0 | -7.8% | 20.2% | 0.1
CN(C)CCNC(=O)/C(=C/c1ccc(-c2cccc(Cl)c2)o1)NC(=O)c1ccccc1 | 26.4% | -2.8% | 10.0 | 4.2 | 10.1% | -3.2% | -0.7
O=[N+]([O-])c1ccc(Sc2ncccn2)c([N+](=O)[O-])c1 | . | 1.2%[15.4 µM] | 14.3 | -2.1 | 5.5% | -15.6% | -10.8
CSC1=NCCN1CCOc1ccccc1 | . | 1.0%[15.4 µM] | -9.3 | -0.4 | 4.3% | -10.5% | 5.1
O=C(O)CC1(CC(=O)Nc2ccc(Cl)cc2C(=O)c2ccccc2)CCCC1 | 1.4% | -1.2% | -6.9 | 1.0 | -28.4% | 22.1% | ?
O=[N+]([O-])c1cccc2ccc(/C=C/c3ccc(Cl)cc3)nc12 | -1.8% | 8.3% | -0.7 | 3.8 | 0.0% | -7.2% | -22.1
Cc1csc(=O)n1CCC(=O)OCC(=O)Nc1ccc(N2CCOCC2)cc1 | -1.0% | -40.4%[inhibitor] | -9.3 | . | . | . | .
Cn1c(NC(=O)C2CC2)cc(=O)n(C)c1=O | 1.7% | ? | -6.4 | 7.1 | 10.6% | -14.7% | -20.4
CC(=O)Nc1ccc(/C=C(\C#N)C(N)=O)cc1 | . | -0.3%[15.4 µM] | -9.2 | -0.2 | -3.3% | 9.0% | ?
N=c1n(Cc2ccccc2)c2ccccc2n1CC(O)c1ccccc1 (stereo not given) | 0.7% | -69.4%[inhibitor] | -10.2 | 1.8 | 11.5% | -1.7% | 2.3
CCOC(=O)/C=C/c1cnn(-c2ccccc2)c1 | -2.5% | -3.9% | -20.4 | -6.6 | 6.2% | 10.3% | -2.7
CSc1n[nH]c(N)c1S(=O)(=O)c1ccc(Cl)cc1 | -0.8% | 19.9% | -0.1 | 0.3 | -3.1% | 4.1% | -3.6
COc1ccccc1NC(=O)COc1coc(CN2CCN(c3ccccc3)CC2)cc1=O | -10.2% | 2.0% | -8.4 | . | 1.2% | . | -1.1
Cc1ccc(NC(=O)C2CCN(S(=O)(=O)c3cccc(C(F)(F)F)c3)CC2)nc1 | 1.5% | ? | -17.3 | . | -8.1% | . | -11.7
Cc1ccc(C(=O)Nc2ccc3c(c2)CCC3)cc1 | 0.9% | -47.3%[inhibitor] | -16.1 | 0.5 | -12.3% | 5.7% | 0.3
O=C(NCCc1ccccc1)c1ncn[nH]1 | 0.9% | 27.1% | 2.6 | 1.0 | -1.6% | ? | -12.1
CCCC(=O)N1CCN(c2ccc(NC(=O)c3sc4ccccc4c3Cl)cc2)CC1 | 2.2% | -32.1%[inhibitor] | 8.7 | 0.9 | -21.1% | ? | .
Cc1c(Cl)cnc(NC(=O)COC(=O)c2cccc(S(=O)(=O)N3c4ccccc4CC3C)c2)c1Cl (stereo not given) | -0.4% | 15.5% | -0.5 | 5.4 | -9.6% | 2.0% | -4.5

Carrying on.
SMILES | ClpP mod | gsp agonist | D2 potentiator | Menin MLL FP FL | gsp antagonist | Sfp inh | TRPV1 potentiator
O=C(Nc1ccc2c(c1)CCC2)c1cccc(S(=O)(=O)Nc2ccccc2Cl)c1 | -2.0% | -2.4% | -9.1 | 1.2 | ? | 16.4% | -0.7
Cc1ccc(NC(=O)/C(=C/C=C/c2ccccc2)NC(=O)c2ccccc2)cc1 | -2.4% | 12.4% | 5.3 | 2.9 | 8.0% | 19.4% | -0.6
O=C1NC(=O)c2cc(Br)cc3cccc1c23 | . | 1.1%[15.4 µM] | -8.5 | 0.6 | -108.8% | 12.5% | -3.7
CC(=O)N(CN1C(=O)c2ccccc2C1=O)c1ccc2c(c1)oc1ccccc12 | -17.7% | 2.2%[15.4 µM] | 1.9 | 5.7 | -5.3% | 7.3% | 8.4
O=Nc1c(O)n(Cc2cccc(C(F)(F)F)c2)c2ccccc12 | . | -14.0%[15.4 µM] | 5.1 | 2.5 | ? | 11.0% | 2.4
COc1ccc(C(C(=O)NC2CCCC2)N(C(=O)c2ccco2)c2ccccc2C(C)=O)cc1OC (stereo not given) | . | 8.6%[15.4 µM] | -0.9 | . | -1.9% | 20.4% | 14.5
CCN(CC)c1ccc2cc(C(N)=O)/c(=N\NC(=O)c3ccncc3)oc2c1 | -3.4% | 57.6% | 5.8 | ? | ? | -5.0% | 14.5
COc1ccc(/C=N\NC(=O)c2ccccc2Br)cc1COc1ccccc1 | -0.3% | ? | -10.4 | . | ? | 26.0% | 10.9
CC1CCN(S(=O)(=O)c2cccc(C(=O)N3CCN(c4ccc(F)cc4)CC3)c2)CC1 | 1.9% | -17.0% | -27.9 | -0.2 | -24.7% | 10.0% | -0.6
C=C1CCC[C@]2(C)C[C@H]3OC(=O)C(CNC(C)CC)[C@H]3CC12 (stereo not given in full) | -6.8% | 11.1% | -1.2 | 0.2 | 8.5% | -1.2% | -5.0
COc1ccc(C2(O)CCN(CC(=O)Nc3nccs3)CC2)c(OC)c1 | 0.0% | -0.8% | -21.0 | 1.9 | 5.0% | -7.1% | -5.9
COCCNC(=O)c1onc(CSc2ccccc2C)c1C(=O)O | 1.1% | . | -24.8 | 1.2 | 3.9% | 22.0% | 7.0
Cc1ccnc(NC(=O)CC(NC(=O)c2ccccc2Cl)c2ccccc2)c1 (stereo not given) | -0.3% | -22.4% | -6.9 | . | 10.5% | . | 0.7
CCc1ccc(-c2cc(-c3n[nH]c(=S)n3CC)c3ccccc3n2)cc1 | . | . | . | 0.6 | . | 2.6% | 0.8
CCCCC(CC)CNC(=O)C(=O)C1C(=O)Nc2ccccc21 (stereo not given) | . | 21.0% | 0.6 | -3.4 | -8.8% | 22.0% | 2.5
O=C(NCCCN1CCCC1=O)Nc1ccc(Cl)cc1 | 0.3% | 8.4% | -7.1 | . | -7.5% | . | .
COc1ccc(S(=O)(=O)N2CC(C(=O)O)Oc3ccc(CC(=O)O)cc32)cc1 (stereo not given) | 0.3% | 9.7% | -1.5 | 3.8 | 14.9% | 7.1% | 8.7
Cc1cc(C(=O)CN2C(=O)NC3(CCCCC3)C2=O)c(C)n1-c1ccc2c(c1)OCO2 | 1.0% | -6.1%[15.4 µM] | -4.2 | 0.6 | 2.3% | -24.8% | 1.1
O=C(Cc1ccccc1)Nc1ccccc1Sc1ccccc1 | 1.6% | -14.3% | -13.2 | 1.5 | -9.8% | -13.2% | 16.4
O=C(c1oc(=O)c2ccccc2c1-c1ccccc1)N1CCOCC1 | 0.4% | -8.3% | -3.4 | 0.2 | 4.4% | 12.9% | -5.1
COc1cccc(C2/C(=C(/O)c3ccc(C)cc3)C(=O)C(=O)N2Cc2ccco2)c1 (stereo not given) | . | 5.7%[15.4 µM] | -2.2 | 0.7 | 4.2% | 14.1% | 7.5
Nc1nnnn1/N=C/c1ccccc1O | -0.7% | 2.1%[15.4 µM] | 2.1 | . | 2.2% | . | .
CCCC(C(=O)Nc1nccs1)c1ccccc1 (stereo not given) | 0.4% | ? | -13.7 | 6.0 | 6.2% | 12.2% | 1.1
CN(C1=NS(=O)(=O)c2ccccc21)c1ccc(OC(=O)c2ccncc2)cc1 | -0.5% | -30.7%[inhibitor] | -6.8 | 2.6 | 3.8% | 16.7% | -7.6
COc1ccc(NC(=O)CSc2nnc(NC(=O)c3ccco3)s2)cc1 | 0.7% | -13.3% | -0.8 | ? | -21.3% | 8.1% | 23.3

Remaining list, next part:
SMILES | ClpP mod | gsp agonist | D2 potentiator | Menin MLL FP FL | gsp antagonist | Sfp inh | TRPV1 potentiator
COc1cccc(S(=O)(=O)Nc2ccc(C(=O)N3CCN(C(=O)c4ccco4)CC3)cc2)c1 | -0.6% | 34.4% | 4.5 | 0.3 | ? | -15.0% | 20.2
COc1ccc(S(=O)(=O)NCC2CCC(C(=O)O)CC2)cc1 (stereo not given) | -2.3% | 2.2% | -7.4 | 1.8 | -1.7% | 12.7% | 21.5
O=C(NC1CCN(C(=O)Nc2ccccc2Cl)CC1)c1cccc(F)c1 | . | -4.2% | -1.6 | -2.4 | 4.6% | 13.2% | 1.9
COc1cc(/C=C/c2nc3ccccc3c(=O)[nH]2)cc(OC)c1OC | -2.3% | ? | 0.7 | -4.9 | 28.7% | -23.4% | 2.6
COC(=O)CCC(=O)OC1(C)C(=O)C=C2C=C(C3CC3)N(Cc3ccco3)C=C2C1=O (stereo not given) | -2.8% | . | 12.4 | ? | -0.8% | 4.3%&-14.9% | -10.4
O=[N+]([O-])c1c(NCCCO)cc(SCc2ccco2)c2nonc12 | 1.6% | -49.0%[inhibitor] | -38.7 | 6.9 | -15.1% | 22.4µM* | -18.9
COc1ccc(C(=O)NCc2nnc(SCC(=O)N3CCCCC3)o2)cc1OC | 0.9% | -8.2% | -4.1 | 5.9 | -10.6% | -12.8% | 4.0
CC(=O)c1cccc(NC(=O)CCc2nnc3ccc(N4CCOCC4)nn23)c1 | 0.1% | ? | -3.6 | -10.3 | 19.7% | 11.5% | -3.5
COc1ccc(OCc2nnc(SCC(=O)N(C)Cc3ccccc3)n2N)cc1 | . | 5.2%[15.4 µM] | -6.8 | -0.7 | -0.1% | 25.1µM* | 7.9
